RecA intein inh = inhibitors of M. tuberculosis RecA intein splicing; P9WHJ3; cell-free RecA intein splicing, fluorescence; inhibition, %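 (about 9 µM by stock and volumes)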; 290,000 compounds, 0.75% hits; AID 2221; in the data active = inhibition above about 30%; inconclusive = no clear call, values can overlap the other calls;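 note: 0% = vehicle wells and 100% = reference inhibitor control wells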
Target sequence (P9WHJ3 whole entry, looked up): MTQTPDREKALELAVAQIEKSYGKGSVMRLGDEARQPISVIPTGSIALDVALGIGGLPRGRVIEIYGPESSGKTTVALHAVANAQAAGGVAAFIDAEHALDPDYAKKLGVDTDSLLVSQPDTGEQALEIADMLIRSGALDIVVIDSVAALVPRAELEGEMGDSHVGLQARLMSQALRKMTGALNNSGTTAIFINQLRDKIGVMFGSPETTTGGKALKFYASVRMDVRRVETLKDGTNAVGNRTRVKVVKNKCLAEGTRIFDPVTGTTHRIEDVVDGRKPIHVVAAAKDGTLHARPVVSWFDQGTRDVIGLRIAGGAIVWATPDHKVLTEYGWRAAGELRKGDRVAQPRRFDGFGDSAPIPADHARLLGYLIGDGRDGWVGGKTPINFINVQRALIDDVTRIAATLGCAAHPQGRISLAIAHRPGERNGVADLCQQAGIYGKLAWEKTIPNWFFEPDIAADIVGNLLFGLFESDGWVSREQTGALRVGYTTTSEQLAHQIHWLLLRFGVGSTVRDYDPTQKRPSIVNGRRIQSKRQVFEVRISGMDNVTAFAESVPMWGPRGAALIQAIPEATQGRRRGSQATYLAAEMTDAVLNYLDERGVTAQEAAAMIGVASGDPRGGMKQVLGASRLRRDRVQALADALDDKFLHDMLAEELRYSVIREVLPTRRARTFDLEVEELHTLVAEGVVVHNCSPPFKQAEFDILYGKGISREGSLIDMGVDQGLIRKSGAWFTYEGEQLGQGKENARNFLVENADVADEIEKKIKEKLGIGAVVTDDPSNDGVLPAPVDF
Mtb H37Rv = M. tuberculosis H37Rv growth inhibitors, H37Rv strain (AID 1626); M. tuberculosis H37Rv growth inhibition; higher % means a stronger effect; inhibition, % at 10 µM, or IC50 in µM where a hit was titrated; 220,000 compounds, 0.95% hits;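 active = confirmed in a dose series; inconclusive = inhibition above 80% but not taken into the dose series; inactive = below 80% or under 30% at every dose of the series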;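 note: bacteria incubated seven days before Alamar blue readout; 0% = bacteria only wells and 100% = bacteria with antibiotic wells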
Arbovirus anti = antivirals against arbovirus infection; arbovirus infection cell-based antiviral screen; inhibition, % at 10 µM; 200,000 compounds, 0.37% hits; AID 1251;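 active = inhibition from about 30%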;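 note: bluetongue infection of BSR cells; cell survival read as ATP light after 72 h; 0% = infected wells without compound and 100% = uninfected wells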
Mtb bLac sens = beta-lactam sensitization of Mtb H37Rv; inhibition, % at 25 µM; M. tuberculosis H37Rv growth with meropenem, percent inhibition; hits of this screen are not shown here; 330,000 compounds, 0.27% hits;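 active = about 74% or more and at least 40 points above the plate without the antibiotic, then above 30% in a dose series; inconclusive = first-round hits that could not be retested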;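 note: growth measured after seven days incubation then overnight dye step; 0% = bacteria only wells and 100% = bacteria with antibiotic; twin plates without the antibiotic show which effects depend on it; some results filed as inactive read as strong as hits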
YopH PTP inh = blocks Yersinia enterocolitica YopH tyrosine phosphatase; fluorescence Ex485/Em525; inhibition, %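 (about 10 µM by stock and volumes)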; 140,000 compounds, 0.16% hits;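 active = inhibition of 50% or more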;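 note: controls were vehicle for no effect and minimum signal wells for full effect; inactives centre near -20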
Arbovirus anti repeat = second read-out of Arbovirus anti, no call of its own (marks repeat the call); inhibition, %; measured here: 10K subset replicate screen; many hits read low in the repeat;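 first of two repeat runs on a subset; 0% = infected and 100% = uninfected wells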
Active calls of the source: *; u = inconclusive; x = no result given; & = joins results of further samples. The list is partial. The share of hits here may be higher or lower than overall.

SMILES	RecA intein inh	Mtb H37Rv	Arbovirus anti	Mtb bLac sens	YopH PTP inh	others
Cc1ccc(S(C)(=O)=O)cc1C(=O)N1CC(C(N)=O)Oc2ccccc21 (configuration not stated)	-4.6	x	x	-10	x
COC(=O)Nc1ccc2c(c1)N(C(=O)CCN1CCOCC1)c1ccccc1S2	2.5	-13%	14	4	-11
COC(=O)CNc1ccc2c(c1)OCO2	-5.0	5%	-16	6	-12
CCC(=O)NC(c1ccc([N+](=O)[O-])cc1)c1c(O)ccc2ccccc12 (configuration not stated)	7.4	0%	-34	u	-24
COc1cccc(C(=O)/C(C#N)=N/Nc2cccc(-c3ccnc(C)n3)c2)c1	-3.4	40%	x	65	x
O=C(O)c1c(Cl)c(Cl)c(Cl)c(Cl)c1C(=O)N1CCOCC1	1.7	1%	4	-11	-17
CCOC(=O)[C@@H]1[C@H]2COc3ccccc3[C@@H]2N2C(=O)N(c3cccc(Cl)c3)C(=O)[C@]12C	-0.7	x	x	-5	x
O=C(COC(=O)CCC(=O)c1ccc(Cl)cc1)NCc1ccco1	1.9	-2%	4	-2	x
COc1ccc(C)cc1NC(=O)CNC(c1ccccc1)c1ccccc1	-0.5	x	x	-1	x
CCCN1CCC(NC(=S)Nc2ccc(OC)c(OC)c2)CC1	-2.2	-8%	-2	-5	x
CC(OC(=O)c1ccccc1NS(=O)(=O)c1cccc(C(F)(F)F)c1)C(=O)N(C)Cc1ccccc1 (configuration not stated)	18	2%	-2	-1	6
O=S(=O)(NCc1ccccc1Cl)c1ccc(-n2cccn2)cc1	0.0	x	x	-2	x
CCOC(=O)c1ccc(NC(=O)c2cc(F)c(F)cc2Cl)cc1	1.2	2%	-8	8	x
CC(C)OC(=O)c1cc2c(=O)[nH]c(C(Cl)(Cl)Cl)nc2o1	-0.8	-4%	0	-3	x
COc1ccc(N2CCN(C(=S)NC(=O)c3cccs3)CC2)c([N+](=O)[O-])c1	-13	u	2	18	x
Cc1ccc(C(=O)Nc2ccc(Cl)cn2)cc1	5.4	4%	-25	3	-5
Cc1cc(C)c(C(=O)CN2C(=O)NC3(CCCCCC3)C2=O)cc1C	-1.4	12%	-3	2	x
CSCCC(NC(=O)c1ccc([N+](=O)[O-])cc1Cl)C(=O)OCC(=O)N1CCN(C(C)=O)CC1 (configuration not stated)	-0.6	x	x	-5	x
COc1ccc(/C=C2\CCc3ccccc3C2=O)cc1Cn1cccn1	5.9	-21%	-9	1	0
O=C(O)c1cccc(NC(=O)c2ccc3c(c2)C(=O)N(CC2CCCO2)C3=O)c1 (configuration not stated)	5.4	7%	3	-2	2
Nc1nc(NC(=O)Cc2ccccc2)nn1-c1ccccc1	-1.2	x	1	-2	-14
Cc1n[nH]c(C)c1CCC(=O)N/N=C/c1c[nH]c2ccccc12	-1.1	x	x	-2	x
O=C(CCS(=O)(=O)c1ccc(Br)cc1)NC1CCCC1	0.4	-6%	-6	-3	-23
CCOCCCN(CCC#N)S(=O)(=O)c1ccc(S(=O)(=O)N2CCCC2)cc1	-2.1	-3%	11	-2	-36
Cc1ccnc(SCC(=O)O)n1	-2.5	-6%	3	1	-24	Arbovirus anti repeat=4
COc1ccccc1NC(=O)NCCCl	2.9	-3%	4	-5	7
CN(Cc1ccccc1)c1nc2c(c(=O)[nH]c(=O)n2C)n1CCOc1ccccc1	0.3	2%	11	-1	-52
COc1ccc(S(=O)(=O)N2CCN(Cc3cccc(OC)c3)CC2)cc1	2.0	x	x	-6	x
CCN(CC)CCNS(=O)(=O)c1ccc2[nH]cc(C(=O)O)c(=O)c2c1	-0.3	7%	9	8	0
Cc1cccnc1NC(=O)c1sc2ccccc2c1Cl	1.1	x	x	15	x

Structures shown so far containing a COOH group:
SMILES	RecA intein inh	Mtb H37Rv	Arbovirus anti	Mtb bLac sens	YopH PTP inh	others
O=C(O)c1c(Cl)c(Cl)c(Cl)c(Cl)c1C(=O)N1CCOCC1	1.7	1%	4	-11	-17
O=C(O)c1cccc(NC(=O)c2ccc3c(c2)C(=O)N(CC2CCCO2)C3=O)c1 (configuration not stated)	5.4	7%	3	-2	2
Cc1ccnc(SCC(=O)O)n1	-2.5	-6%	3	1	-24	Arbovirus anti repeat=4
CCN(CC)CCNS(=O)(=O)c1ccc2[nH]cc(C(=O)O)c(=O)c2c1	-0.3	7%	9	8	0

5 records picked at random from the list so far:
SMILES	RecA intein inh	Mtb H37Rv	Arbovirus anti	Mtb bLac sens	YopH PTP inh	others
O=C(O)c1cccc(NC(=O)c2ccc3c(c2)C(=O)N(CC2CCCO2)C3=O)c1 (configuration not stated)	5.4	7%	3	-2	2
Cc1cc(C)c(C(=O)CN2C(=O)NC3(CCCCCC3)C2=O)cc1C	-1.4	12%	-3	2	x
COc1ccccc1NC(=O)NCCCl	2.9	-3%	4	-5	7
Cc1n[nH]c(C)c1CCC(=O)N/N=C/c1c[nH]c2ccccc12	-1.1	x	x	-2	x
O=C(CCS(=O)(=O)c1ccc(Br)cc1)NC1CCCC1	0.4	-6%	-6	-3	-23

(continued)
SMILES	RecA intein inh	Mtb H37Rv	Arbovirus anti	Mtb bLac sens	YopH PTP inh	others
O=C1c2cccc([N+](=O)[O-])c2C(=O)N1c1ccccc1	-4.8	-1%	11	7	-9
COc1cccc(OCC(O)CN2CCc3ccccc3C2)c1 (configuration not stated)	-0.9	x	x	0	x
CC1Cc2ccccc2N1C(=O)C12CCC(C)(C(=O)C1)C2(C)C (configuration not stated)	0.2	-2%	-10	3	-22	Arbovirus anti repeat=3
O=C(NCCO)c1nc(NCCO)c2ccccc2n1	-0.6	0%	2	x	-34
CCCCN(CC)CCCNC(=O)CS(=O)(=O)Cc1nc(-c2cccc(OC)c2)oc1C	-0.9	-8%	-1	u	-1
CCCCSc1nnc(-c2c[nH]c3ccccc23)n1C	-2.7	3%	-2	0	x
Cc1ccc(NC(=O)COC(=O)COc2cccc3c2OC(C)(C)C3)cc1S(=O)(=O)N1CCOCC1	1.3	x	x	-5	x
COc1ccc(N(C(=O)Cc2cccs2)C(C(=O)NC2CCCCC2)c2cccn2C)cc1OC (configuration not stated)	0.0	1%	-11	-3	-24
O=C(COc1ccc(S(=O)(=O)NC2CCCCC2)cc1Cl)NCc1ccc2c(c1)OCO2	2.4	7%	-31	6	-28
Cc1ccccc1C1c2[nH]c3ccccc3c2C[C@H]2C(=O)N(c3ccccc3C(=O)NCCCN3CCOCC3)C(=O)N12 (some centres not stated)	3.4	x	x	-6	x
NS(=O)(=O)c1ccc(CCNc2nc(CN3CCCCC3)nc3sc4c(c23)CCC4)cc1	-1.0	9%	-11	-9	-12
CC(NC(=O)c1ccccc1Br)c1nnc(SCC(=O)NC2CCCCC2)n1C (configuration not stated)	-4.7	x	x	-1	x
CCOC(=O)[C@@H]1[C@H]2COc3cc(OC)ccc3[C@@H]2N2C(=O)N(c3ccc(Cl)cc3)C(=O)[C@]12C	3.7	4%	x	2	x
CCOC(=O)N1CCN(C(=O)c2ccc3c(=O)n(CCc4ccc(OC)c(OC)c4)c(=O)[nH]c3c2)CC1	-1.9	x	x	6	x
CCOC(=O)Cn1c(=O)oc2ccc(C)cc21	2.2	3%	1	-7	x
Cn1c(N)c(C#N)c2c(c1=S)CSC(C)(C)C2	1.7	-3%	11	-1	2
O=C(Nc1ccc(Cl)cc1F)c1cc(S(=O)(=O)N2CCCCC2)ccc1F	1.1	1%	1	0	-17
CCc1ccc(-c2csc3ncn(CC)c(=O)c23)cc1	0.8	-5%	-6	4	x
CCOC(=O)c1sc(=NC(=O)COc2ccc(Cl)cc2)n(C)c1C	-4.2	1%	3	-6	x
CCCSc1nsc(SCCC)c1C#N	3.6	6%	-3	-11	-12
CCC(CO)NCc1ccc(-c2ccccc2)cc1 (configuration not stated)	-1.9	-1%	-11	6	-31
Cn1c(SCC(=O)NNC(=O)c2ccccc2)nnc1C1CC1	-1.3	x	x	5	x
CCOC(=O)c1c(C)[nH]c(C(=O)COC(=O)/C=C/c2ccc3c(c2)OCO3)c1C	11	-2%	-1	6	10
CN1CCN(C(=O)COc2ccc3ccccc3c2Br)CC1	-2.5	-3%	6	-5	-25
COc1ccc(-c2nc(N)nc(C(F)(F)F)c2-c2csc(C)n2)c(O)c1	-0.1	-5%	x	-1	x
CCOC(=O)N1CCC(NC(=O)C(NS(=O)(=O)c2ccc3c(c2)CCN3C(C)=O)C(C)C)CC1 (configuration not stated)	-1.9	x	2	3	-12
CCOc1ccc(NC(=O)c2cccs2)c([N+](=O)[O-])c1	-1.1	x	-16	-10	-39
CN(C)c1nc(-c2cccnc2)nc(-c2ccccc2)c1C#N	-1.7	x	x	2	x
CC1(C)CC(=O)C=C(NCCCN2CCCC2=O)C1	-10	-5%	x	6	7
COc1cccc(CN2CCN(Cc3ccc(C)o3)CC2CCO)c1 (configuration not stated)	0.2	-6%	-7	-5	x
Cn1nc(-c2ccccc2)c(CO)c1Oc1cccc(C(F)(F)F)c1	-0.6	3%	6	6	x
COC(=O)c1cc(=O)c2c(C)nc(C(Cl)(Cl)Cl)nc2[nH]1	0.9	6%	4	0	x
OC1C[N+]2(CCCCC2)C1	0.8	-6%	2	9	-48
Cc1ccc(CSCC(=O)N2CCCC2)cc1	0.3	5%	-2	-8	x
CCOc1ccc(NC(=O)CCNC(=O)c2ccco2)cc1	5.0	x	x	81	x
COCc1cc(C)[nH]c(=O)c1C#N	-18	-13%	3	-9	-50
O=C(CSc1nnc2ccc(-c3ccccn3)nn12)NCCc1ccccc1	-18	x	x	-19	x
COC(=O)C(Cc1cncn1COCc1ccccc1)NC(=O)OC(C)(C)C (configuration not stated)	0.4	5%	1	2	-3
CC1CCc2nc(NC(=O)Cc3cccs3)sc2C1 (configuration not stated)	2.0	5%	1	58	-27
CCCCNC(=O)c1cc(-c2ccc3c(c2)OCO3)on1	1.4	x	x	0	x
CCOC(=O)N1CCN(C(=O)CSc2ccc3nnc(-c4cccnc4)n3n2)CC1	1.4	-1%	13	-3	x
COc1cc2c(cc1OC)C(C)N(C(=S)NC(=O)c1ccccc1)CC2 (configuration not stated)	x	-6%	-2	29	x
CC(=O)Nc1nc(Cn2nnc(-c3ccc4c(c3)OCO4)n2)nc(N(C)C)n1	0.5	-2%	10	-8	x
Cc1nc(SCC(=O)Nc2cc(Cl)ccc2[N+](=O)[O-])nc(C)c1C	2.8	-1%	-3	-4	-15
CCOC(=O)CC1COCCN1C(=O)c1ccc2oc(Cc3ccccc3)nc2c1 (configuration not stated)	-0.1	x	x	-1	x
CSc1nnc(-c2cc(Br)ccc2N=Cc2c(C)[nH]n(-c3ccccc3)c2=O)c(=O)[nH]1	5.9	-3%	-3	-6	x
O=C(CN1CCN(S(=O)(=O)c2ccccc2)CC1)Nc1ccccc1Cl	8.1	x	x	-2	x
COc1ccc(/C=N/NC(=O)Cn2cc(C(F)(F)F)ccc2=O)cc1	-2.0	1%	6	3	x
c1ccc2[nH]c(-c3ccnc4ccccc34)nc2c1	-0.5&2.2	2%&-6%	-2&4	1&-10	-41&-25	Arbovirus anti repeat=1
Cc1ccc(C(=O)/C=C\NCc2ccccc2)cc1	4.1	2%	3	3	-31
Cc1c(C(=O)N2CCC3(CC2)OCCO3)sc2ncnc(N3CCN(c4ccccn4)CC3)c12	x	-6%	0	-1	-42
O=c1cccc2n1CC1CC2CN(S(=O)(=O)c2ccc(F)cc2)C1 (configuration not stated)	-0.9	-9%	12	-5	x
Nc1cc(N2CCCC2)ccc1[N+](=O)[O-]	4.9	7%	0	1	x
O=C(Cn1cc(CCO)nn1)N1CCNCC1	-3.2	-8%	0	0	x
O=C(Nc1ccc(Oc2ccccc2)nc1)C1CCCCN1Cc1cccc(OCCO)c1 (configuration not stated)	1.7	x	x	-7	x
COc1ccc(CS(=O)(=O)CC(C)(O)c2ccccc2)cc1 (configuration not stated)	-2.2	x	x	1	x
N#Cc1ccc(-c2ccc(OCC(=O)NCCc3ccccc3)cc2)cc1	-2.2	8%	0	4	-24
Cc1ccc(Sc2c([N+](=O)[O-])ncn2C)cc1	53*	4%	-7	-14	-14
CCn1ncc(CN2CCN(C(=O)Nc3ccccc3C(=O)OC)CC2)c1C	-1.4	-9%	5	-3	-13
CCOC(=O)c1sc2nc3c(SCCC(=O)O)cc(C(=O)c4cc(OC)ccc4O)cn3c(=O)c2c1C	-2.6	1%	4	x	x

(further entries)
SMILES	RecA intein inh	Mtb H37Rv	Arbovirus anti	Mtb bLac sens	YopH PTP inh	others
COc1ccccc1CNC(=O)COc1cccnc1[N+](=O)[O-]	-1.4	x	x	3	x
CCc1nc(C)c(C(=O)N2CCCC(C(=O)Nc3cccc(-c4cccc(C)c4)c3)C2)o1 (configuration not stated)	7.0	x	x	-7	x
O=C(N/C=C/c1ccco1)OCc1ccccc1	1.5	0%	-2	-4	x
CCCc1[nH]nc2c1C(c1ccc(OC(=O)N3CCOCC3)cc1)C(C#N)=C(N)O2 (configuration not stated)	48*	0%	10	3	-26
